From PubChem
D2 PAM – potentiates the human D2 dopamine receptor allosterically; AID 624464; potentiation, % (no concentration beside the values); P14416; DiscoveRx D2 beta-arrestin cells, luminescence, 90 min; 100% = 57 uM dopamine signal; hit rate 0.23% among 360,000; active = potentiation of 50% or more; inconclusive = 30% to 50%; inactive = 30% or less;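 also: compound concentration not given in the record; tested on top of an EC20 dose of dopamine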
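PathHunter beta-arrestin assay in DiscoveRx D2 cells. Compounds were added with an EC20 of dopamine (50 nM final) for 90 min at 37 deg C. Luminescence was read 1 h after detection reagent, with 57 uM dopamine as the EC100 control.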
Six1-Eya2 inh – inhibitors of human Six1/Eya2 interaction; Q15475+O00167; AlphaScreen GST-Six1/His-Eya2 binding, biochemical; active compounds read low; control for the full effect not named in the record; activity change, % (no concentration beside the values); hit rate 0.56% among 360,000; AID 651725; in the data active = activity change below about -65%; inconclusive = about -30% to -65%; inactive = above about -30%; also: % is scaled to controls: 0 for no effect and ±100 for the full control effect
Target sequence (O00167 whole entry, looked up): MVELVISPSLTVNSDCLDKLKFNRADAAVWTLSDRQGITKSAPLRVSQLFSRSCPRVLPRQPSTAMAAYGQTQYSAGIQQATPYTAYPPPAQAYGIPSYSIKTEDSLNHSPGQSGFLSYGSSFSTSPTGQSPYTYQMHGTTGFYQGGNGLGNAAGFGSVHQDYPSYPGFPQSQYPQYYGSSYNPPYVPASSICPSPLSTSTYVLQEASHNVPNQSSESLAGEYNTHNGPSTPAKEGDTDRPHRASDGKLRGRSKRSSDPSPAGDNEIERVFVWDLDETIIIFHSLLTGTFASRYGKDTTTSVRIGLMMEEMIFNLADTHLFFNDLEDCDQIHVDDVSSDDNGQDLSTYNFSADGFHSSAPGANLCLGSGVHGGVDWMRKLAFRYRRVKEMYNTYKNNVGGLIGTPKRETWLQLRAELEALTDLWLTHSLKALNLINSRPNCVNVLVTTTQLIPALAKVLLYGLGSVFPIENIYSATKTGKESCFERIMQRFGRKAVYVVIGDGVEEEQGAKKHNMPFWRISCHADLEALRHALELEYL
Target sequence (Q15475 whole entry, looked up): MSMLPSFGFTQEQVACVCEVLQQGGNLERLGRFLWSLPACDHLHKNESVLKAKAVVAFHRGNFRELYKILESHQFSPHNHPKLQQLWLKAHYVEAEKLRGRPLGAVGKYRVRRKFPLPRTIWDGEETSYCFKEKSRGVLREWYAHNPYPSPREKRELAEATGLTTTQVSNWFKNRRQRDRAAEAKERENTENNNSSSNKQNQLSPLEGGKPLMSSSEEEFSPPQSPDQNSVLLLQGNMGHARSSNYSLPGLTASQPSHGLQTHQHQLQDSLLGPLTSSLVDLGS
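Compounds are tested against tagged Six1 and Eya2 proteins bridged by glutathione donor and nickel acceptor beads; after a one-hour incubation at 37 °C without light, AlphaScreen emission is recorded.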
CtBP-E1A blk – blocks the CtBP interaction with E1A. AlphaScreen GST-E1A/His-CtBP binding, 1536-well; active compounds read low; control for the full effect not named in the record. hit rate 0.49% among 340,000. activity change, % (no concentration beside the values); in the data active means activity change below about -65%; inconclusive means about -30% to -65%; inactive means above about -30%; also: % is scaled to controls: 0 for no effect and ±100 for the full control effect
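Homogeneous bead-based format: GST-tagged E1A captured on glutathione donor beads, His-tagged CtBP on nickel acceptor beads; compounds precede bead addition by 2 h at 37 °C.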
PINK1 modulator – modulators of PINK1 expression; PINK1 immunofluorescence, high-content cytometry, 24 h; Potency, µM (series often up to 76.6 µM), for inactives: at the highest dose activation (PINK1 increase), most hits filed as activators; hit rate 0.2% among 410,000; active = well fitted activation curve with a large enough effect; inconclusive = small, poorly fitted or top-dose-only effect; inactive = flat fitted curve, though single readings scatter; cell line not stated here;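 also: potency is read from the fitted curve at half-maximal effect; % of control where 0% means no effect; nearly all actives have a fitted effect of over 65% in size; a mitochondrial uncoupler was the plate control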
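A stable cell line was treated with compounds at 5 concentrations for 24 hours, with CCCP as control. PINK1 levels and mitochondrial localization were measured by immunofluorescence with mitochondrial, cell and nuclear markers after fixation, read by laser-scanning cytometry.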
Sfp inh – Sfp phosphopantetheinyl transferase inhibition; Q9F4F7; Biochemical Sfp PPTase activity, qHTS; Potency, µM, for inactives: max response, negative = inhibition, usual class: inhibitors; hit rate 3.5% among 310,000; AID 1490; active = well fitted inhibition curve with a large enough effect; inconclusive = small, poorly fitted or top-dose-only effect, or another doubt; inactive = no such curve, though single readings can be large or run the other way;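 also: the enzyme is Sfp with the accession as filed and its product quenches rhodamine fluorescence; potency is read from the fitted curve at half-maximal effect; 0% = enzyme reaction without inhibitor and -100% = no enzyme wells; top concentration of the series not given in the record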
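Fluorescence-quenching assay with 15 nM Sfp, 5 uM rhodamine-CoA and 12.5 uM BHQ-2-labelled ybbR peptide in pH 7.6 Hepes/MgCl2 buffer. Enzyme was pre-incubated with compound for 15 min at room temperature. Rate was taken from the 30-min fluorescence change (525/598 nm).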
D2 ag – agonists of human D2 dopamine receptor (beta-arrestin). P14416. DiscoveRx PathHunter D2 beta-arrestin, luminescence, 90 min; 100% = 57 uM dopamine signal. activation, % (concentration not given with the values). hit rate 0.084% among 360,000; in the data active = activation above about 40%; inconclusive = about 15% to 40%; inactive = below about 15%; also: compound concentration not given in the record; the text of the record calls up to 30% inactive
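DiscoveRx PathHunter D2 beta-arrestin cells (2,100/well) attached overnight, then compound-stimulated 90 min at 37 C in HBSS/10 mM HEPES/0.1% Tween-20 buffer; beta-galactosidase complementation read by luminescence after 1 h at ambient temperature. Dopamine 57 uM final (EC100) as control.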
TRPV1 PAM – human TRPV1 potentiation; hit rate 0.02% among 320,000; TRPV1-expressing cells, Fluo-8 calcium influx, capsaicin EC20 potentiation; host cell line not named in the record; control for the full effect not named in the record; Q8NER1; potentiation, % at 8.33 µM; active means potentiation above 80%; inconclusive means 30% to 80%; inactive means below 30%; also: 0% is about no effect
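Fluo-8 calcium influx in TRPV1-expressing cells, kinetic read (ex 480/em 520 nm). Compound added and read 3 min for agonist activity, followed by capsaicin at EC20 final and 2 min further read for enhancement.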
* = called active by the depositor; ? = inconclusive; . = no result given; & = joins results of further samples; [ ] = remark or other dose.

1. COc1ccc(Cl)cc1N(CC(=O)NC(C)(C)C)S(=O)(=O)c1ccc(C)c([N+](=O)[O-])c1
2. COc1ccc(CCNC(=O)CSc2nc(=O)n3cccc(C)c3n2)cc1OC
3. COc1cc(OC)cc(C(=O)NC(=S)Nc2nc(-c3cc4ccccc4o3)cs2)c1
4. COc1ccc(C(=O)COC(=O)CN2C(=O)C3C4C=CC(C5CC45)C3C2=O)cc1 (stereo not drawn)
5. O=C(O)C(C(=O)/C=C/c1ccco1)=C1SCCS1
6. C/C(CC(=O)NC1CCCCCC1)=N\NC(=O)c1cnccn1
Compound,1,2,3,4,5,6
TRPV1 PAM,-12,-7,8,5,2,-9
Six1-Eya2 inh,-1,-5,-5,-1,-23,-18
D2 ag,-3.3,-4.0,-1.7,-2.3,-3.9,-1.2
PINK1 modulator,1.0%,0.4%,2.4%,-0.3%,0.5%,1.4%
Sfp inh,2%,.,12%,8%,28µM*,-11%
CtBP-E1A blk,3,4,-14,3,11,-8
D2 PAM,-23,-16,-25,5,6,9

7. CCNC(=S)NNC(=O)c1cccn(Cc2ccc(Cl)cc2)c1=O
8. O=C(c1nc2ccccn2c1CNCCCn1nnc2ccccc21)N1CCOCC1
9. Cc1cc(C(=O)NC2CCN(Cc3ccccc3)CC2)n[nH]1
10. COc1ccccc1OCCCn1c(=O)sc2ccccc21
11. O=C(NNS(=O)(=O)c1ccccc1)c1sccc1-n1cccc1
12. O=C(OCc1cc(=O)n2c(n1)sc1ccccc12)c1ccc(O)cc1
Compound,7,8,9,10,11,12
TRPV1 PAM,-1,-4,8,-27,.,4
Six1-Eya2 inh,-22,-1,6,-1,-3,-7
D2 ag,-3.1,-7.0,1.1,-3.6,-1.9,1.2
PINK1 modulator,0.2%,1.0%,0.1%,-8.3%[38.3 µM],-0.4%,7.3%
Sfp inh,19%,-4%,12%,2%,3%,9%
CtBP-E1A blk,?,.,.,18,3,-4
D2 PAM,-15,-9,-17,2,-14,-19

13. COC(=O)c1cc(C#N)c(N(C)Cc2ccccc2)nc1C
14. O=S(=O)(NCC(c1cccnc1)N1CCN(c2ccc(F)cc2)CC1)c1cccs1 (stereo not drawn)
15. CC(C)(C)NC(=O)CN(c1cccc([N+](=O)[O-])c1)S(=O)(=O)c1ccccc1
16. Cc1ccc(NC(=S)N(Cc2ccco2)C(C)c2cccs2)cc1 (stereo not drawn)
17. COc1ccc(C(=O)NC2CC2)cc1OC1CCN(Cc2ccccc2F)CC1
18. Cc1ccc(NC(=O)NCCCc2ccccc2)cc1
Compound,13,14,15,16,17,18
TRPV1 PAM,4,8,-3,141*,-16,-24
Six1-Eya2 inh,17,-28,6,2,0,4
D2 ag,-2.2,-4.9,1.4,-0.1,-5.6,-2.3
PINK1 modulator,6.6%,1.3%,-2.7%,3.1%,1.5%,-0.4%[38.3 µM]
Sfp inh,-11%,-2%,14%,5%,2%,6%
CtBP-E1A blk,39,-18,9,5,-5,7
D2 PAM,-8,-9,3,4,-25,-9

19. CCn1c(CSc2nc(C)cc(C)n2)nnc1SCC(=O)Nc1ccccc1
20. CC(C)=C1C2CCC1C1C(=O)N(NC(=O)c3ccco3)C(=O)C21 (stereo not drawn)
21. CCOc1ccc(/C=C/C(=O)N(CC)CC(=O)NCc2cccs2)cc1OC
22. CN(C)CCNc1ccc(CO)c2sc3ccc(O)cc3c(=O)c12
23. COc1ccc(S(=O)(=O)N2CCCCCC2)cc1C(=O)N(C)CC(=O)Nc1cc(C)ccc1C
24. COc1cccc(CNC(=O)CCNS(=O)(=O)c2ccc3c(c2)CC(C)N3C(C)=O)c1 (stereo not drawn)
Compound,19,20,21,22,23,24
TRPV1 PAM,-5,5,-11,.,7,6
Six1-Eya2 inh,2,5,0,?,-1,2
D2 ag,-0.7,-1.0,-4.3,-5.1,-6.1,-0.5
PINK1 modulator,-15%[38.3 µM],1.5%,2.4%,-7.2%,1.0%,-0.7%
Sfp inh,18%,16%,.,.,6%,15%
CtBP-E1A blk,0,-1,0,?,-3,0
D2 PAM,1,-6,-18,-20,-22,-7

25. Cc1cc(Nc2ccc(Br)cc2F)n2nc(C)nc2n1
26. Cc1ccc(-n2c(C)cc(C(=O)CSc3nncs3)c2C)cc1
27. COc1ccc(C)cc1NC(=O)C(=O)N/N=C(\C)CC(=O)Nc1cccnc1
28. Cc1cccc(NC(=O)Cn2c(=O)oc3ccccc32)c1C
29. CCOC(=O)c1cc2ccc(OC(=O)c3ccco3)cc2oc1=O
30. COc1cc(/C=N/NC(=O)c2ccncc2)c([N+](=O)[O-])cc1OC
Compound,25,26,27,28,29,30
TRPV1 PAM,18,20,-11,-1,6,0
Six1-Eya2 inh,-13,-22,-4,-8,-9,0
D2 ag,-2.6,-0.2,-2.8,-0.5,-0.1,-5.0
PINK1 modulator,-0.1%,0.3%[38.3 µM],-0.3%,-1.1%,-1.0%[38.3 µM],0.0%
Sfp inh,8%,?,2%,6%,4%,7%
CtBP-E1A blk,-8,-5,-15,7,6,.
D2 PAM,-1,7,-8,-5,-13,3

31. Cc1cc(C)n(-c2nc(SCC(=O)Nc3nccs3)c3c4c(sc3n2)COC(C)(C)C4)n1
32. COc1ccc(CNC(=O)CCS(=O)(=O)c2ccc3c(c2)oc(=O)n3C)cc1
33. O=S(=O)(Nc1cc(Cl)ccc1N1CCOCC1)c1ccccc1Cl
34. CC[C@]12c3[nH]c4cc(-c5ccco5)ccc4c3CCN1C(=O)[C@@H](CC(=O)NCC13CC4CC(CC(C4)C1)C3)C[C@@H]2C(=O)N1CCN(C(=O)C2CC2)CC1
35. Cc1nc(N)sc1-c1csc(Nc2ccccn2)n1
36. Cc1cc(C)c2nc(Nc3nc(-c4ccccc4)cc(=O)[nH]3)nc(C)c2c1
Compound,31,32,33,34,35,36
TRPV1 PAM,12,-22,29,.,8,1
Six1-Eya2 inh,-3,1,6,-28,?,0
D2 ag,-4.4,-0.7,7.0,-2.0,-7.7,-4.4
PINK1 modulator,2.9%,-0.7%&2.8%,1.0%,-0.6%,-2.3%,3.8%
Sfp inh,3%,8%,.,.,56µM*,-1%
CtBP-E1A blk,-1,-2,-3,-13,?,-12
D2 PAM,-5,2,-5,-9,-11,-2

37. CCOc1cc(S(=O)(=O)N2CCCC2)c(C)cc1C
38. COc1ccc(-c2cc(C(=O)OC3CCOC3=O)c3ccccc3n2)cc1OC (stereo not drawn)
39. Brc1ccc(CN2CC[C@H]3C=CCc4cccc(c43)C2)cc1
40. Cc1noc(C)c1CSCC(=O)Nc1cccc(C(F)(F)F)c1
41. O=C(N/N=C/c1coc2ccccc2c1=O)c1cc(Br)ccc1O
42. CCN(CC)C(=O)c1cc(C(C)(C)C)c(O)c(C(C)(C)C)c1
Compound,37,38,39,40,41,42
TRPV1 PAM,-17,-1,14,.,7,-3
Six1-Eya2 inh,6,-4,-16,0,4,0
D2 ag,1.5,0.4,3.7,0.4,-4.4,-6.5
PINK1 modulator,-0.4%,-0.9%,?,1.7%,0.2%,7.4%
Sfp inh,-4%,4%,.,.,20%,17%
CtBP-E1A blk,7,-5,-10,15,9,1
D2 PAM,-6,9,-10,-33,13,-7

43. COc1ccc(-c2nc3cc(C)c(Br)c(C)n3c2Cc2ccc(C)cc2)cc1OC
44. O=C(O)CCCCCCCCCC[n+]1ccccc1
45. CC(OC(=O)c1cccc(-n2cnnn2)c1)C(=O)NC1(C#N)CCCCC1 (stereo not drawn)
46. CCOC(=O)c1c(C)[nH]c(C(=O)OCC(=O)N2CCN(S(=O)(=O)c3ccc(C)cc3C)CC2)c1C
47. C/C(=N\Nc1ccccn1)c1ccc(C#N)cc1
48. Cc1ccc(S(=O)(=O)n2ccc(-c3cccc(OCc4c(F)cccc4Cl)c3)n2)cc1
49. Cc1ccc(C(O)c2ncc(-c3cccc(F)c3)[nH]2)cc1 (stereo not drawn)
Compound,43,44,45,46,47,48,49
TRPV1 PAM,.,-1,0,-11,-18,.,.
Six1-Eya2 inh,-15,1,1,-5,-21,5,-2
D2 ag,-1.9,-4.3,8.1,2.5,0.6,-2.3,-2.4
PINK1 modulator,4.6%,3.2%,1.2%,5.0%,2.6%,0.6%,-0.4%
Sfp inh,.,-2%,.,.,-7%,4%,.
CtBP-E1A blk,-8,5,1,1,5,-5,0
D2 PAM,-4,-4,-5,3,23,-2,-14

Some of the entries so far, with two lines to a compound.
Each structure is followed by: TRPV1 PAM, Six1-Eya2 inh, D2 ag, PINK1 modulator, Sfp inh, CtBP-E1A blk, D2 PAM
33: O=S(=O)(Nc1cc(Cl)ccc1N1CCOCC1)c1ccccc1Cl
→ 29, 6, 7.0, 1.0%, ., -3, -5
34: CC[C@]12c3[nH]c4cc(-c5ccco5)ccc4c3CCN1C(=O)[C@@H](CC(=O)NCC13CC4CC(CC(C4)C1)C3)C[C@@H]2C(=O)N1CCN(C(=O)C2CC2)CC1
→ ., -28, -2.0, -0.6%, ., -13, -9
35: Cc1nc(N)sc1-c1csc(Nc2ccccn2)n1
→ 8, ?, -7.7, -2.3%, 56µM*, ?, -11
36: Cc1cc(C)c2nc(Nc3nc(-c4ccccc4)cc(=O)[nH]3)nc(C)c2c1
→ 1, 0, -4.4, 3.8%, -1%, -12, -2
37: CCOc1cc(S(=O)(=O)N2CCCC2)c(C)cc1C
→ -17, 6, 1.5, -0.4%, -4%, 7, -6
38: COc1ccc(-c2cc(C(=O)OC3CCOC3=O)c3ccccc3n2)cc1OC (stereo not drawn)
→ -1, -4, 0.4, -0.9%, 4%, -5, 9
39: Brc1ccc(CN2CC[C@H]3C=CCc4cccc(c43)C2)cc1
→ 14, -16, 3.7, ?, ., -10, -10
40: Cc1noc(C)c1CSCC(=O)Nc1cccc(C(F)(F)F)c1
→ ., 0, 0.4, 1.7%, ., 15, -33
